# T cruzi inh: inhibitors of intracellular T. cruzi growth, primary screen, luminescence, NIH3T3 host cells; T. cruzi beta-gal in NIH3T3, 90 h; inhibition, % (no concentration beside the values); 300,000 compounds, 1.4% hits; AID 1885, 2009;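 active means mean inhibition across valid replicates above about 55%, limit read from the data; inconclusive means mean below that limit but half or more replicates reach it; inactive means mean below it, under half of replicates reach it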;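 further: signal also drops with host cell toxicity which is not excluded here; 0% = plate median of DMSO wells and 100% = zero luminescence signal; higher percent means less beta-gal luminescence so fewer parasites; stock transfer was 50 nL into about 50 µL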
# FGF22 binding: binders of human FGF22 protein, primary screen, FGF22 synaptogenesis inhibitor project, biophysical, thermal shift, single point; Fibroblast growth factor 22 (Homo sapiens), Q9HCT0; 340,000 compounds, 1.5% hits; recombinant FGF22 thermal shift, SYPRO orange fluorescence; percent of sucrose octasulfate shift, DMSO zero; AID 651658, 2012; calls only at 9.99 µM;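 active means melting point raised past a set limit in the mean and every replicate; inconclusive means no clear call; three in four hits are not shown here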
# Target sequence (Q9HCT0 whole entry, looked up): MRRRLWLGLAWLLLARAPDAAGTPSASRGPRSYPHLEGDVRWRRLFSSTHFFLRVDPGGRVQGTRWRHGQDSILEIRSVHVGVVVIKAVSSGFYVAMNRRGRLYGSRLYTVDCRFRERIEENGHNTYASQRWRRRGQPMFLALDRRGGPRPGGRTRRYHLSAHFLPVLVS
# Beta cell apopt: inhibitors of cytokine-induced beta cell apoptosis, primary screen, luminescence | INS-1E cytokine-induced death, ATP luminescence, 48 h; percent of positive-control rescue, neutral wells zero | protection from apoptosis, % (concentration not given with the values) | 300,000 compounds, 0.8% hits;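 active means all replicates at 75% or more, or half of them and the mean; inconclusive means half reach 75% but not the mean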;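 further: 0% = cytokine-treated negative control wells and 100% = positive control rescue; higher means more ATP so stronger rescue from cytokine killing; wells of about 40 µL received 100 nL stock; the first replicate is given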
# UCH37 inh: inhibitors of human UCH37 deubiquitinase, primary screen, biochemical, Ub-AMC cleavage, fluorescence | 330,000 compounds, 0.33% hits | purified proteasome/UCH37 | inhibition, % (no concentration beside the values);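 active means mean of two replicates above 20%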;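 further: 0% = compound-free wells with enzyme and 100% = wells lacking proteasome; stock transfer was 100 nL into about 20 µL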
# Target sequence (Q9Y5K5 whole entry, looked up): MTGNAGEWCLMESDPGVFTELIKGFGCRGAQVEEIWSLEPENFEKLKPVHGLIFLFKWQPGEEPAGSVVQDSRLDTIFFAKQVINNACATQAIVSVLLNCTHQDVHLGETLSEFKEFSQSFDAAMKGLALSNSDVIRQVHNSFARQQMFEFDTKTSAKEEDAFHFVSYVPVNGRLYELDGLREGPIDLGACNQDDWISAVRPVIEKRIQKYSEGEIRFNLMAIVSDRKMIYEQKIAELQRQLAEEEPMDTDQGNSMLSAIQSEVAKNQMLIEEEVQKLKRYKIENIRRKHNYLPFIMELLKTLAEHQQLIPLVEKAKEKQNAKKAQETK
#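 Signal – fluorescence, ex 355 nm, em 460 nm · System – Proteasome-bound UCH37 · Input – 0.15 nM proteasome as dispensed · Timing – 30 min preincubation with enzyme, 25 min cleavage at room temperature · Read-out basis – percent inhibition of cleavage signal versus uninhibited and no-proteasome wells · Medium – Tris-HCl pH 7.4 with ATP-MgCl2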
# Ecoli growth: E. coli growth inhibition, primary screen, OD600 | 330,000 compounds, 0.21% hits | OD600 absorbance (test concentration not listed) | AID 1053175, 2014 | Escherichia coli growth, 23 h; active compounds read low;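 active means OD600 absorbance below the run mean of sample wells minus 3.6 SD, in any replicate, cut at about 0.56 in these data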;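 further: stock transfer was 300 nL into about 60 µL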
# AF4-AF9 inh: inhibitors of AF4 peptide binding to AF9, primary screen, biochemical, AlphaScreen, biotin-AF4 peptide, FLAG-AF9, single point. inhibition, % at 10 µM. AID 651704, 2012. 350,000 compounds, 0.47% hits. Protein AF-9 (Homo sapiens), P42568;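 active means every replicate reaching a set inhibition limit, whatever the replicate mean, cut at about 25% in these data; inconclusive means mean inhibition reaches that limit but some replicates miss it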;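 further: 0% = plate neutral control median and 100% = total signal loss; the record names both 10 and 1 µM as test concentration; the first replicate is given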
# Target sequence (P42568 whole entry, looked up): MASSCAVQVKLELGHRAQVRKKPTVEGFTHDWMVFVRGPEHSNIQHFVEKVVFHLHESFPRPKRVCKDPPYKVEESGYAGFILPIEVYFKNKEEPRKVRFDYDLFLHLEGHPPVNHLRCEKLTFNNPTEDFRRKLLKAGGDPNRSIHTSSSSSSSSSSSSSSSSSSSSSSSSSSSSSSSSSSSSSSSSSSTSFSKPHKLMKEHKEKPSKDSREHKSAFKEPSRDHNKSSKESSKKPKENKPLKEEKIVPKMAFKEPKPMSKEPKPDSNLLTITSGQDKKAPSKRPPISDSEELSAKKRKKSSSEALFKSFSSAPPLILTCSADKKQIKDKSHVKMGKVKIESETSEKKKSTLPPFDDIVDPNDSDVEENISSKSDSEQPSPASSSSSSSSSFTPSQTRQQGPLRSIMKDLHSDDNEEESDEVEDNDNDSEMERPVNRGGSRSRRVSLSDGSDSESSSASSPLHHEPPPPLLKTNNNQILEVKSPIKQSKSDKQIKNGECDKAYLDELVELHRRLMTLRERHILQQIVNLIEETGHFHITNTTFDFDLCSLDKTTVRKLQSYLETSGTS
# Bfl-1 A1 inh: caspase 3/7 activation in MEF A1-2A-BIM cells, primary screen, A1 inhibitor project, cell-based, luminescence, HTS; Caspase-Glo 3/7 luminescence, 3 h; percent of clofoctol response, vehicle zero; caspase activation, % (concentration not given with the values); 330,000 compounds, 0.066% hits;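 active means over half of replicate activation scores above 10%, or exactly half above 10 with the replicate mean above 10; inconclusive means replicate mean below 10 yet half the replicates above 10; inactive means over half of replicates below 10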;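 further: wells of about 30 µL received 50 nL stock; many hits fall short of the cut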
# Ecoli rRNA inh: reduced GFP signal of wild-type E. coli, primary screen, bacterial rRNA inhibitor project, GFP/RFP fluorescence, OD600, single point. E. coli WT GFP vs humanized-ribosome RFP mutants, 24 h; active compounds read low; DMSO median 0, no signal -100. GFP signal change (wild-type ribosome), % (concentration not given with the values). 350,000 compounds, 1.6% hits. AID 720706, 2013;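 active means significant combined selectivity score with lowered wild-type GFP, culture density cut under 30%, mutant RFP and density less affected; inactive means any of these conditions unmet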; further: one replicate is shown; some compounds called inactive have numbers as strong as hits
# Ecoli rRNA inh OD600: further read-out of Ecoli rRNA inh, marked with its call; OD600 change, %; measured here: OD600 growth;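 optical density of the mix in the first replicate; 0 = DMSO median and -100 = no signal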
# Ecoli rRNA inh RFP: also measured in Ecoli rRNA inh; calls as there; RFP signal change, %; measured here: RFP humanized mutant strains;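 first replicate; 0 = DMSO median and -100 = no signal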
# Active calls of the source: *; i = inactive; u = inconclusive; x = no result given.
canonical_smiles	T cruzi inh	FGF22 binding	Bfl-1 A1 inh	Ecoli rRNA inh RFP	Ecoli growth	Ecoli rRNA inh	UCH37 inh	Ecoli rRNA inh OD600	Beta cell apopt	AF4-AF9 inh
Cc1cc(OCC(=O)Nc2ccc(CN3CCOCC3)cc2)c2c(C)c(C)c(=O)oc2c1	32.4	i	0.3	-0.5	0.706	0.1	-24.7	12.7	-0.6	-2.7
COc1ccc(C)cc1S(=O)(=O)Nc1ccc(-n2c(C)nc3ccccc3c2=O)cc1	-1.6	i	-0.8	-0.4	0.622	-5.0	2.5	-10.4	x	1.4
Cc1cc(C(=O)N/N=C/c2cccc(OC(=O)c3cccc(Br)c3)c2)n[nH]1	x	i	-0.6	2.8	x	5.6	x	6.6	-6.4	-1.5
COc1ccc(C(C(=O)Nc2ccc(C(C)C)cc2)N(Cc2ccco2)C(=O)CC2NC(=O)NC2=O)cc1 (centres undefined)	5.9	i	-0.3	17.6	0.722	-0.1	11.3	-7.0	0.5	7.2
O=C(Nc1ccc(N2CCN(C(=O)c3ccco3)CC2)cc1)c1cccs1	14.4	x	u	x	0.672	x	6.0	x	1.1	x
Cc1c(Cc2ccccc2)c(=O)oc2cc(O)ccc12	-12.6	i	-0.3	-5.9	0.675	-35.5	i	-36.3	-5.0	-8.7
COc1ccc(CC(=O)N2CC3(C)CC2CC(C)(C)C3)cc1 (centres undefined)	5.8	i	-0.5	0.8	0.677	-3.6	3.4	-23.6	-1.7	6.5
CCn1cc(C(=O)NCC(C)C)c(=O)c2cc(F)c(N3CCN(C(=O)c4ccco4)CC3)cc21	-3.7	i	0.9	-17.0	0.575	-53.1	-132.4	-77.2	2.8	6.8
CC(C)c1ccc(N2C(=O)CSC23C(=O)N2CCCc4cccc3c42)cc1 (centres undefined)	x	i	0.2	-7.2	0.724	4.8	0.7	9.1	2.2	9.4
Cc1ccc(S(=O)(=O)n2nccc2-c2c(-c3ccccc3)noc2C)cc1	4.7	i	0.2	-5.6	0.736	-25.1	1.8	-23.4	-1.2	0.2
CC1(C)C2CC=C(/C=N/NC(=O)C3CC3)C1C2 (centres undefined)	5.1	i	0.5	0.5	x	17.0	x	16.6	-3.8	-0.5
Cc1ccc(S(=O)(=O)Oc2ccccc2N2C(=O)C3CC=CCC3C2=O)cc1 (centres undefined)	-9.1	x	0.8	x	0.707	x	1.1	x	3.8	x
COC(=O)c1sc2nc(C)c([N+](=O)[O-])c(C)c2c1N	16.2	i	-1.7	-0.6	0.655	-8.0	1.9	-6.9	-7.7	3.2
CN1C(=O)C(CC(=O)NC2CCCCC2)N(C)C1=O (centres undefined)	-0.8	i	-1.1	0.9	0.73	2.4	3.4	7.2	-2.6	-1.2
COc1cc(CCC(=O)Nc2cnc3ccccc3c2)cc(OC)c1OC	11.1	i	-1.6	-7.3	0.651	0.0	-4.3	1.7	-2.1	0.2
CCOC(=O)N1CCC(NC(=O)Cn2cc3c(n2)CCCCC3)CC1	-9.5	i	-0.3	-1.1	0.702	5.8	1.9	5.0	-3.4	-0.9
CC(C)(C)C(=O)Nc1nnc(-c2ccncc2)o1	-3.6	i	-0.2	-4.8	0.645	15.3	-7.8	4.2	-8.9	-3.1
O=S(=O)(Cc1cc(NCc2ccccc2)nc(-c2ccncc2)n1)c1ccccc1	5.8	x	0.8	-1.8	0.689	10.7	2.2	7.6	5.6	-1.4
COCC(=O)NCCc1ccc(S(N)(=O)=O)cc1	-7.3	x	0.4	-4.8	0.59	4.2	-0.2	0.1	-7.6	-26.5
CCCn1c(=O)c(C(=O)NCc2ccccc2Cl)c(O)c2ccccc21	18.5	i	0.2	-3.8	0.694	-0.1	2.7	9.0	6.5	-4.6
CC1CCCCN1C(=O)CSc1nnc(Cc2ccccc2)n1C (centres undefined)	6.5	x	1.1	x	0.694	x	2.8	x	-5.1	x
COc1ccc(S(=O)(=O)N2CCN(C(=O)c3c(C)nn(-c4ccccc4)c3Cl)CC2)cc1	-0.9	x	1.2	x	0.766	x	-6.8	x	-6.8	x
Cc1ccc(NC(=O)CSc2nc(=O)n(CCCN3CCOCC3)c3c2CCCC3)cc1F	7.8	i	0.5	1.7	0.642	-5.3	1.1	-6.6	9.8	-24.6
COc1ccccc1CNC(=O)C(=O)NCCC1CCCCN1S(=O)(=O)c1cccs1 (centres undefined)	23.9	i	-0.1	0.3	0.657	9.9	1.3	8.5	x	-1.3
O=C(/C=C/c1cccc(F)c1)c1ccc(N2CCOCC2)cc1	-16.8	x	-0.2	5.4	0.761	-7.8	4.7	-10.7	3.2	3.0
COc1ccc(/C=C(\C#N)C(=O)NCCCn2ccnc2)cc1	0.9	i	-0.2	4.6	0.682	14.7	11.7	10.8	-1.1	-0.5
Cc1cc(C)c2c(c1)cc(C)c1nnc(SCC(=O)Nc3cc(C)on3)n12	-26.2	i	-0.3	-3.1	0.751	-4.9	-3.5	-12.9	3.5	8.2
CCOc1ccc([C@@H]2CC=C(C(=O)O)[C@H](c3ccc(Cl)cc3)N2S(=O)(=O)c2ccc(C)cc2)cc1	x	x	-0.9	-5.6	x	3.2	1.7	12.4	0.9	-1.3
Cc1ccc(S(=O)(=O)NCC(=O)OCC(=O)NCc2ccc(F)cc2)cc1	-1.6	i	0.0	-2.6	0.649	5.2	-1.4	9.7	-4.2	-2.7
CO/N=C1\CCn2c1c(C)c1ccccc12	-6.8	i	-0.2	1.8	x	9.1	x	7.7	-4.9	x
COc1cccc(C(=O)NN2CC(O)=C(c3nc(C)cs3)C2=N)c1	-17.9	i	0.1	-4.8	0.685	0.9	1.7	6.9	-1.5	5.9
Cc1ccc(NP(=O)(c2ccc(N(C)C)cc2NC(=O)c2cccs2)N2CCOCC2)cc1 (centres undefined)	56.6*	x	2.0	x	0.71	x	0.0	x	9.3	x
CC(=O)CC(C)(C)NC(C)=S	-14.3	i	1.1	-1.0	0.635	3.0	0.8	0.3	-2.1	-0.8
Cn1c(C(=O)N2CCCC(C(=O)NCc3ccccc3)C2)cc2sccc21 (centres undefined)	-14.8	i	0.3	0.6	0.707	-14.6	4.3	-8.2	x	-8.3
O=C1c2cccc3cc(Br)cc(c23)C(=O)N1Nc1ccc(Br)cc1	-9.4	x	-0.1	x	0.692	x	4.9	x	5.0	x
O=C(Nc1ccc(Cl)c(S(=O)(=O)N2CCOCC2)c1)C1=NN(c2ccccc2)C(=O)CC1	x	i	-0.5	6.0	0.733	-11.1	3.3	-11.5	4.7	6.2
CCn1c(SCC(=O)Nc2cc(C)on2)nnc1-c1ccco1	-1.7	x	-0.3	x	0.692	x	4.3	x	-1.6	x
O=c1c2c(nc3cc(-c4cccc(Cl)c4)[nH]n13)CCC2	24.0	x	-3.7	x	0.698	x	-8.2	x	5.4	x
CCN(c1ccccc1)S(=O)(=O)c1cccc(C(=O)NCc2cccnc2)c1	-18.0	i	0.1	-5.0	0.621	-17.5	2.6	-21.4	1.1	8.6
Cc1ccc(/C=N/NC(=O)c2nnn(-c3nonc3N)c2-c2ccc3c(c2)OCO3)s1	-7.4	i	-0.1	3.0	x	-1.6	x	-16.0	2.5	0.1
O=C(CN1CCOCC1)N/N=C/c1ccc(C(=O)O)cc1	-18.6	i	-0.3	2.5	x	12.2	x	13.4	3.8	3.8
O=C(Nc1c(Cl)cc(Cl)cc1C(=O)NCCN1CCOCC1)c1cccc([N+](=O)[O-])c1	9.5	i	-0.3	-1.3	0.672	10.8	2.1	3.5	2.3	-2.1
COc1cccc(N2CCN(C(=O)c3oc4ccccc4c3NC(=O)Cc3ccc(OC)c(OC)c3)CC2)c1	-17.7	i	-0.9	-5.4	0.654	-16.2	0.3	-23.6	-2.2	9.3
Cc1ccc(N(C)S(=O)(=O)c2cccc(C(=O)Nc3nnc(C4CC4)s3)c2)cc1	8.2	i	0.3	-0.2	0.697	15.9	-1.0	9.5	1.0	-3.2
CCOC(=O)c1c(-c2ccc(C)o2)csc1NC(=O)CN1CCCCC1	17.9	i	0.4	14.5	0.693	-20.6	4.2	-46.7	9.1	-3.7
CN=C(NC1CCCCC1)c1ccc([N+](=O)[O-])cc1	-7.0	i	0.2	-0.5	0.711	16.3	-0.3	8.5	0.4	-4.8
O=C(Cc1c(F)cccc1Cl)c1ccc(O)cc1O	-24.7	x	-0.1	x	0.624	x	2.2	x	-3.0	x
CCOCCCN(Cc1cc2cc(C)cc(C)c2[nH]c1=O)C(=O)N(CC)CC	15.1	x	-1.6	x	0.707	x	-11.6	x	1.7	x
C[C@@H]1C(=O)OC[C@H]1NC(=O)OCc1ccccc1	-12.4	i	0.8	7.7	x	7.7	-0.6	4.9	-6.4	-2.3
COc1ccccc1C(=O)NCC(=O)NCCC(c1ccccc1)c1ccccc1	x	i	-1.4	10.1	0.706	-13.5	2.6	-18.2	5.8	-6.3
CN(Cc1ccon1)C(=O)CC1C(=O)NCCN1Cc1cccc(Oc2ccccc2)c1 (centres undefined)	5.6	i	0.1	-0.8	0.679	0.3	3.2	-8.2	-0.9	6.3
CN(C(=O)c1ccc(=O)n(Cc2ccc(Cl)cc2)c1)c1ccccc1	0.0	i	1.1	-0.6	0.647	-26.6	2.0	-27.0	-4.9	0.6
COC(=O)c1cccc(NC(=O)CC2C(=O)NCCN2C(=O)c2ccc(F)cc2F)c1 (centres undefined)	-0.5	i	0.8	-1.0	0.642	4.2	1.8	0.5	-6.1	-0.4
CCOc1ccc(OCCC(=O)N2CCN(S(=O)(=O)c3ccc(F)cc3)CC2)cc1	7.7	i	0.7	-0.8	0.677	8.5	3.1	11.1	0.1	0.9
Cn1nc(C(=O)OCC(=O)Nc2ccc(Cl)cc2Cl)c2ccccc2c1=O	x	i	-0.4	0.5	0.695	15.8	0.9	15.4	1.6	0.3

# Ordered by number of heavy atoms (descending): 3 of the compounds above
canonical_smiles	T cruzi inh	FGF22 binding	Bfl-1 A1 inh	Ecoli rRNA inh RFP	Ecoli growth	Ecoli rRNA inh	UCH37 inh	Ecoli rRNA inh OD600	Beta cell apopt	AF4-AF9 inh
COc1cccc(N2CCN(C(=O)c3oc4ccccc4c3NC(=O)Cc3ccc(OC)c(OC)c3)CC2)c1	-17.7	i	-0.9	-5.4	0.654	-16.2	0.3	-23.6	-2.2	9.3
CCOc1ccc(OCCC(=O)N2CCN(S(=O)(=O)c3ccc(F)cc3)CC2)cc1	7.7	i	0.7	-0.8	0.677	8.5	3.1	11.1	0.1	0.9
C[C@@H]1C(=O)OC[C@H]1NC(=O)OCc1ccccc1	-12.4	i	0.8	7.7	x	7.7	-0.6	4.9	-6.4	-2.3

# Assay outcomes from PubChem BioAssay.

# An excerpt (hit frequency here may not be typical).
